Vaccinia Venus – inhibitors of vaccinia virus (Venus reporter); Vaccinia virus Venus reporter expression, fluorescence; Potency, µM (highest dose often 36.5 µM), inactives show at the top dose activity change, negative = inhibition, actives largely listed as inhibitors; 330,000 tested, 0.46% active; AID 720580; active means well fitted inhibition curve with a large enough effect; inconclusive means small, poorly fitted or top-dose-only effect; inactive means no such curve, though single readings can be large or run the other way; tested in A549 cells; also: nearly all actives have a fitted effect of over 30% in size; inactives centre near -10
Vaccinia mCherry – vaccinia inhibition (mCherry reporter); Vaccinia virus mCherry reporter infection, fluorescence; about a quarter of the inactives have no number; Potency, µM (titrated, usually from 36.5 µM), for the others: at the top dose activity change, negative = inhibition, usual class: inhibitors; 310,000 tested, 0.63% active; active = well fitted inhibition curve with a large enough effect; inconclusive = small, poorly fitted or top-dose-only effect; inactive = no such curve, though single readings can be large or run the other way; tested in A549 cells; also: nearly all actives have a fitted effect of over 35% in size; inactives centre near -10
The depositor's hits bear a star; i = inactive; u = inconclusive; x = no result given; & = joins results of further samples; [ ] = remark or other dose. % is scaled to controls: 0 for no effect and ±100 for the full control effect; potency is read from the fitted curve at half-maximal effect.

| molecule | Vaccinia Venus | Vaccinia mCherry |
| --- | --- | --- |
| CC(C)C(=O)Nc1ccc(C(=O)NNC(=O)CCc2ccccc2)cc1 | -15% | i |
| Cc1cc(=O)oc2cc(OC(C)C(=O)O)c(Cl)cc12 (centres undefined) | -4% | -15% |
| COc1ccc(Cl)cc1NC(=O)c1ccc2c(SCC(=O)O)c3c(nc2c1)CCCC3 | -1% | -2% |
| CCOC(=O)c1[nH]c2ccc(F)cc2c1NC(=O)C1=COCCO1 | -17% | x |
| N#Cc1ccccc1S(=O)(=O)c1ccccc1C(=O)Nc1ccccc1 | -19% | -15% |
| CSCc1cc(N2CCOCC2)nc(SCc2ccc(Cl)c(Cl)c2)n1 | -7% | u |
| Cc1ccccc1Cc1ccc(Cl)nn1 | -3% | -1% |
| COc1ccc(CCNCc2ccc(OC)c(OC)c2OC)cc1 | -6% | i |
| COc1ccc(-c2nc(NC(=O)C3CC(=O)N(c4ccc5c(c4)OCCO5)C3)sc2C)cc1 (centres undefined) | u | u |
| COC(=O)c1cc2ccsc2n1CC(=O)N(C)C1CCCCC1 | -8% | -20% |
| CCOc1ccc(NS(=O)(=O)c2c(C)nc3sc(CC)nn3c2=O)cc1 | -14%&-17% | -10%&-7% |
| CCN1CCN(C(=O)c2ccc3c(=O)n(CCc4ccccc4)c(=O)[nH]c3c2)CC1 | -6% | i |
| COc1ccccc1NS(=O)(=O)c1cc([N+](=O)[O-])ccc1N/N=C/c1c(C)[nH]c2ccccc12 | -5% | -27% |
| CN1CCC(N(C)C(=O)c2cc(-c3ccc(F)cc3)nc3ccccc23)CC1 | -7% | -24% |
| CN(C)C(/C=C/Nc1ccc(C#N)cc1)=C(C#N)C#N | -4% | -11% |
| O=C(/C=C/c1cc[n+](CC(=O)c2ccc3cccc4c3c2CC4)cc1)c1ccc2cccc3c2c1CC3 | 6% | 5% |
| CCOC(=O)c1c(-c2ccc(C)cc2C)csc1NC(=O)c1ccccc1Cl | 3% | -13% |
| O=C(Cn1c(SCc2ccccc2)nc2ccccc21)N1CCOCC1 | -15% | -7% |
| Cc1ccc(SCc2nc(-c3ccc(C(=O)NCc4ccc(Cl)cc4)cc3)oc2C)cc1 | 4% | 2% |
| CCOc1ccc(-c2cc(CCCC(=O)NCCc3ccc(OC)c(OC)c3)no2)cc1 | -16% | -19% |
| C[C@H]1CN([C@@H](C)CO)C(=O)CCCn2nncc2CO[C@H]1CN(C)S(=O)(=O)c1ccc2ccccc2c1 | -19% | -5% |
| Cc1ccc(S(=O)(=O)N2CCOC2CNC(=O)C(=O)NCc2cccnc2)cc1 (centres undefined) | -7% | 0% |
| COc1ccc(N2Cc3ccccc3C2=O)cc1 | -7% | -9% |
| CC(C)COC(=O)C1C2C=CC3(CN(C(C)c4ccc(Br)cc4)C(=O)C13)O2 (centres undefined) | -7% | -5% |
| COc1cccc(-c2cc(C(=O)Nc3cccnc3)no2)c1 | u | u |
| COc1cc2cnc(-c3ccccc3)c(-c3cccc(C(F)(F)F)c3)c2cc1OC | -25% | u |
| CN(C)S(=O)(=O)c1ccc(-c2csc(N/N=C/c3ccc(O)cc3)n2)cc1 | u | u |
| CN(Cc1ccc(Cl)cc1Cl)C(=O)CNC(=O)c1ccc2c(c1)OCO2 | -10% | -25% |
| O=C(CSc1nccn1-c1ncc(C(F)(F)F)cc1Cl)c1ccc(Br)cc1 | -8% | x |
| O=C(OCC(=O)N1CCCC1)c1cc(F)c(F)cc1Cl | -10% | -2% |

Reformatted with each value named: 2 of the compounds above.
SMILES: CC(C)C(=O)Nc1ccc(C(=O)NNC(=O)CCc2ccccc2)cc1
  Vaccinia Venus: -15% | Vaccinia mCherry: i

SMILES: CCOC(=O)c1c(-c2ccc(C)cc2C)csc1NC(=O)c1ccccc1Cl
  Vaccinia Venus: 3% | Vaccinia mCherry: -13%

Carrying on:
| molecule | Vaccinia Venus | Vaccinia mCherry |
| --- | --- | --- |
| Cn1cc(C(=O)N2CCc3ccccc32)cn1 | -4% | -14% |
| COc1ccccc1CCNC(=O)C1(C)CC1(Cl)Cl (centres undefined) | -12% | i |
| O=C(Nc1ccnc(=O)[nH]1)c1sc2ccccc2c1Cl | -5% | -13% |
| Cn1ccc2c(-c3ccc4c(c3)OCCO4)cc3c(c21)C1CCC3C1 (centres undefined) | -9% | i |
| CCOC(=O)c1c(C)[nH]c(C(=O)N/N=C\c2ccccc2O)c1C | u | u |
| CCOC(=O)C1=C[C@@H](C(C)(C)C)N(S(=O)(=O)c2ccc(C)cc2)[C@H]1c1ccc(C#N)cc1 | -3% | 28% |
| COc1ccc(NC(=O)CC2COc3ccccc3O2)c(OC)c1 (centres undefined) | -10% | x |
| O=C(NCc1ccco1)c1cccc(-c2nnc(-c3ccccc3)o2)c1 | -30% | x |
| C[C@H](CO)N1C[C@H](C)[C@@H](CN(C)Cc2ccc3c(c2)OCO3)Oc2c(NS(C)(=O)=O)cccc2C1=O | -6% | -17% |
| NCCCC[C@H](N[C@@H](CCc1ccccc1)C(=O)O)C(=O)N1CCC[C@H]1C(=O)O | -11%&-8% | -21% |
| CCCCNC(=S)NNC(=O)c1csc(C)c1CC | -6% | i |
| Cc1ccc(-n2nnnc2CCl)cc1 | -15% | -3% |
| COc1cc(CNCCO)ccc1OC1CCCC1 | -5% | -17% |
| S=C(Nc1ccc(Nc2ccccc2)cc1)Nc1ccccn1 | -29% | u |
| CCN(CC)S(=O)(=O)c1ccc(C(=O)N2CC(=O)Nc3ccc(F)cc3C2c2ccccc2)cc1 (centres undefined) | -11% | -13% |
| COc1cc(Cl)ccc1OC1(C)CCN(Cc2ccccc2OC(F)F)C1 (centres undefined) | -3% | u |
| O=C(c1cc(S(=O)(=O)N2CCOCC2)ccc1Cl)N1CCN(c2ccccn2)CC1 | -11% | -11% |
| CCOC(=O)C1C(=O)CC(C)(O)C(C(=O)OCC)C1c1cccs1 (centres undefined) | -15% | x |
| COc1ccc(OC)c(CC(=O)Nc2ccc3c(c2)CCC3)c1 | -2% | -9% |
| Cc1cccc(C)c1NC(=O)C(C)N1CCCCC1 (centres undefined) | -7% | i |
| COc1ccc2[nH]c(=O)c(C(c3nnnn3C(C)(C)C)N(Cc3ccco3)CC3CCCO3)cc2c1 (centres undefined) | -16% | -4% |
| Cc1csc(NC(=O)CSc2nnc(NC(=O)COc3ccc(Cl)cc3)s2)n1 | -7% | -21% |
| COc1ccccc1N(C)C(=O)Cn1c(=O)oc2cc(S(=O)(=O)N3CCCC3)ccc21 | -13% | -24% |
| O=C(CCCOc1ccccc1)Nc1ccccc1C(F)(F)F | -2% | -1% |
| Cc1cc(C)cc(-n2nnn(C3C/C(=N/NC(N)=S)C4OCC3O4)c2=S)c1 (centres undefined) | u | u |
| CC(=O)Nc1ccc(SCC(=O)c2cc(C)n(Cc3cccs3)c2C)cc1 | -8% | -12% |
| O=C(NCCCN=C1NS(=O)(=O)c2ccccc21)c1ccccc1Cl | -3% | -13% |
| Cc1nnc(SCC(=O)NCc2ccc(Cl)cc2)[nH]c1=O | -6% | -9% |
| C[C@@H]1CN([C@@H](C)CO)C(=O)c2cc(NC(=O)C3CCCCC3)ccc2O[C@@H](C)CCCCO[C@@H]1CN(C)Cc1ccncc1 | -29% | i |
| CC12C(=O)N(CCC(=O)O)C(=O)C1C1C=CC2C1 (centres undefined) | 25% | 5% |
| CC(C)(C)OC(=O)N1CCC[C@H]1c1nnc(SCc2c(Cl)cccc2Cl)o1 | -25% | x |
| CSCCC(NS(=O)(=O)c1ccc2c(c1)oc(=O)n2C)C(=O)N1CCN(c2cccc(Cl)c2)CC1 (centres undefined) | -8% | -11% |
| COc1ccc(N2CCN(C(=O)Cn3ncc4c3-c3cc(C)ccc3OC4)CC2)cc1 | -4% | -8% |
| COc1cc(NC(=O)CSc2nc(C)c(C(=O)Nc3ccccc3)c(-c3ccc(OC)c(OC)c3)c2C#N)c(OC)cc1Cl | -2% | -6% |
| O=C(CSc1nnnn1-c1cccnc1)Nc1ccc(F)cc1F | -19% | -6% |
| CC(C)CCOP(N)(=O)Oc1ccccc1 (centres undefined) | 4% | i |
| Cc1ccc(S(=O)(=O)n2nc(-n3c(C)ccc3C)c3c(F)cccc32)c2ccccc12 | 20% | -13% |
| COc1ccc(CCNC(=O)CSc2nc3ccccc3nc2Cc2ccc(Cl)cc2)cc1OC | -29% | -3% |
| C/C(=N\Nc1nc(-c2cc(C)ccc2C)cs1)c1cc2ccccc2oc1=O | 3% | -6% |
| CCCN1CCC(NC(=S)Nc2cccc(Cl)c2Cl)CC1 | -24% | -8% |
| Cc1nc2nc(SCC(=O)NCCCN3CCCC3)nn2c(C)c1Cc1ccccc1Cl | -8% | -21% |
| CCc1nn(C(C)C(=O)NCc2cccc(OC)c2)c(=O)c2cc3occc3n12 (centres undefined) | -10% | i |
| O=C(Cn1cnc(S(=O)(=O)N2CCCCC2)c1)Nc1ccc(OC(F)(F)F)cc1 | 0%[7.34 µM] | i[7.34 µM] |
| Cc1ccc(NC(=O)c2nc[nH]c2C(=O)N(C)Cc2ccccc2)cc1 | u | i |
| Cc1nn(-c2ccc(N3CCOCC3)nn2)c(C)c1CCC(=O)Nc1ccc(F)cc1F | 1% | -7% |

Remaining list, next part
Results follow in this order: Vaccinia Venus	Vaccinia mCherry
> O=C(c1ccc(Cl)c(S(=O)(=O)NCc2ccco2)c1)N1CCN(c2ccc(F)cc2)CC1
→ u	-17%
> COC(=O)Cn1c(=O)cnc2ccccc21
→ -4%	-11%
> COc1ccc(CNCCC(c2ccc3c(c2)OCO3)c2ccccc2OC)cc1 (centres undefined)
→ u	u
> O=C(NCc1cccnc1)c1cc(C2CCCCN2C(=O)c2ccccc2)on1 (centres undefined)
→ 2%	-1%
> CCOc1ccccc1NC(=O)/C(C#N)=C/c1c(C)nn(-c2ccccc2)c1Cl
→ 5%	-3%
> Cc1ocnc1C(=O)Nc1ccc(Cl)cc1
→ -7%	-8%
> Cc1cc(NC(=O)c2ccc(F)cc2)ccc1-c1cc2ccccc2oc1=O
→ -8%	-9%
> COCCCNC(=O)c1c(N)n(-c2ccc(S(N)(=O)=O)cc2)c2nc3ccccc3nc12
→ -10%	i
> CCOc1ccc(NC(=O)CSc2nc3c(c(=O)n2C)SC(C)C3)cc1 (centres undefined)
→ -21%	-10%
> O=C(CNC(=O)c1ccc(Cl)cc1Cl)OCc1cn2cc(Br)ccc2n1
→ 2%	-27%
> CCc1ccc(C2C(C#N)=C(N)Oc3cc(N)ccc32)cc1 (centres undefined)
→ -12%	u
> COc1ccc(-n2c(=O)[nH]cc(C(=O)Nc3ccccc3)c2=O)cc1
→ -20%	i
> CCN(CC)Cc1oc(-c2ccccc2)cc1C(=O)O
→ -2%	10%
> C[C@@H](NC(=O)[C@@H]1Cc2ccccc2CN1C(=O)OC(C)(C)C)C(=O)NC1CCCC1
→ -1%[7.34 µM]	i[7.34 µM]
> COc1ccc(C(=O)c2oc3ccccc3c2NC(C)=O)cc1
→ -26%	-13%
> COc1ccc(NS(=O)(=O)c2cc(C(=O)O)ccc2C)cc1
→ -6%	-4%
> Cc1nnc(SCC(=O)c2c(N)n(Cc3ccccc3)c(=O)n(C)c2=O)n1C
→ -5%	-18%
> Cc1cc(C)c(C=NNc2nc3c([nH]2)c(=O)n(C)c(=O)n3C)c(C)c1
→ -4%	-14%
> O=C1c2ccccc2S(=O)(=O)N1CC1CC(c2ccccc2Cl)=NO1 (centres undefined)
→ -4%	-11%
> CC1CN(C(=O)CCC(=O)NCc2ccc(F)cc2)c2cc(Cl)ccc2O1 (centres undefined)
→ -8%	-15%
> CS(=O)(=O)NN1C(=O)c2ccccc2NC1c1cccc(O)c1 (centres undefined)
→ -2%	-10%
> O=C1CC(c2ccsc2)c2ccc3ccccc3c2N1 (centres undefined)
→ 0%	-21%
> C=CCCC1CN(Cc2ccco2)S(=O)(=O)c2c(F)cccc2O1 (centres undefined)
→ -1%	i
> CCc1ccc(NC(=O)CSc2nccn2-c2ccc(OC)cc2)cc1
→ -23%	-3%
> O=C(CCc1nc(-c2cccs2)no1)Nc1ccccc1[N+](=O)[O-]
→ -7%	-9%
> O=C(C[C@@H]1C/C=C\C[C@@H](NC(=O)OCC2c3ccccc3-c3ccccc32)C(=O)OC[C@@H](Cc2ccccc2)NC1=O)NCCO
→ -18%	i
> NS(=O)(=O)c1ccc(CNC(=O)/C=C/c2cccc([N+](=O)[O-])c2)cc1
→ -11%	u
> CCOC(=O)CSc1cccc2cccnc12
→ u	x
> COc1ccc(Cn2cnc([N+](=O)[O-])c2)cc1[N+](=O)[O-]
→ 0%[7.34 µM]	-4%[7.34 µM]
> S=C(Nc1ccc(Br)cc1Cl)Nn1cnnc1
→ -9%	-10%

Single values from above:
Vaccinia Venus with Cc1nnc(SCC(=O)c2c(N)n(Cc3ccccc3)c(=O)n(C)c2=O)n1C reads -5%
Vaccinia Venus with COc1ccc(Cn2cnc([N+](=O)[O-])c2)cc1[N+](=O)[O-] reads 0%[7.34 µM]
Vaccinia mCherry with S=C(Nc1ccc(Br)cc1Cl)Nn1cnnc1 reads -10%

Further compounds.
Results follow in this order: Vaccinia Venus	Vaccinia mCherry
> COc1ccccc1C(=O)NNC(=O)CN1C(=O)c2ccccc2C1=O
→ -7%	-12%
> CC(C)c1ccc(C2NC(=S)NC3=C2C(=O)CC(C)(C)C3)cc1 (centres undefined)
→ -22%	-3%
> Cc1ccc(/C=C/C(=O)OCn2nnc3ccccc3c2=O)o1
→ -11%	i
> COc1n[nH]c(C(=O)Nc2nc3ccccc3s2)c1[N+](=O)[O-]
→ 0%	i
> COc1ccc(C(c2c(O)cc(C)oc2=O)c2c(O)cc(C)oc2=O)cc1
→ -6%	-15%
